Screening data from PubChem BioAssay.
Vaccinia mCherry: inhibitors of vaccinia virus infection (mCherry reporter signal); Vaccinia virus mCherry reporter infection, fluorescence; about a quarter of the inactives have no number; Potency, µM (doses to about 36.5 µM), inactives show at the top dose activity change, negative = inhibition, most hits filed as inhibitors; hit rate 0.63% among 310,000; active = well fitted inhibition curve with a large enough effect; inconclusive = small, poorly fitted or top-dose-only effect; inactive = no such curve, though single readings can be large or run the other way; tested in A549 cells; also: nearly all actives have a fitted effect of over 35% in size; inactives centre near -10
Vaccinia Venus: vaccinia inhibition (Venus reporter); Vaccinia virus Venus reporter expression, fluorescence; Potency, µM (doses to about 36.5 µM), inactives show top-dose activity change, negative = inhibition, most hits filed as inhibitors; hit rate 0.46% among 330,000; AID 720580; active means well fitted inhibition curve with a large enough effect; inconclusive means small, poorly fitted or top-dose-only effect; inactive means no such curve, though single readings can be large or run the other way; tested in A549 cells; also: nearly all actives have a fitted effect of over 30% in size; inactives centre near -10
* = called active by the depositor; i = inactive; ? = inconclusive; · = no result given; [ ] = remark or other dose. % is scaled to controls: 0 for no effect and ±100 for the full control effect; potency is read from the fitted curve at half-maximal effect. No enrichment for hits; 0.86% or so of the library scored in one or more.

Preview, 3 compounds:
SMILES	Vaccinia mCherry	Vaccinia Venus
CCN1C(=O)[C@H]2[C@@H](c3ccc(C)cc3)N3C(=O)N(c4cccc(Cl)c4)C(=O)[C@@]3(Cc3ccc(Cl)cc3)[C@H]2C1=O	i	-22%
CCC(=O)Nc1nnc(S(=O)(=O)N(C)Cc2ccccc2)s1	0%	-5%
COc1ccc(-n2c(-c3ccc(Cl)cc3)c[n+]3c2CCc2ccccc2-3)cc1	-22%	-13%

The listing, previewed entries included:
SMILES	Vaccinia mCherry	Vaccinia Venus
CCN1C(=O)[C@H]2[C@@H](c3ccc(C)cc3)N3C(=O)N(c4cccc(Cl)c4)C(=O)[C@@]3(Cc3ccc(Cl)cc3)[C@H]2C1=O	i	-22%
CCC(=O)Nc1nnc(S(=O)(=O)N(C)Cc2ccccc2)s1	0%	-5%
COc1ccc(-n2c(-c3ccc(Cl)cc3)c[n+]3c2CCc2ccccc2-3)cc1	-22%	-13%
Cc1cc(C)n2nc(-c3sccc3-n3cccc3)cc2n1	·	-23%
COCCCNC(=O)CSc1nc2c(sc3ccccc32)c(=O)n1CCc1ccccc1	6%	-1%
O=C(CN1Cc2ccccc2C1=O)Nc1ccc2c(c1)OCCO2	-11%	-2%
O=c1[nH]nc(Cc2ccc(-c3ccccc3Cl)o2)c2ccccc12	-14%	-4%
CC1CCN(C(=O)CCn2c(=O)oc3ccc(Cl)cc32)CC1	-20%	-22%
C[C@@H](c1ccccc1)N1C[C@@H](COCc2ccccc2)Oc2cc(N3CC[C@@H](N(C)C)C3)ccc2S1(=O)=O	19%	-5%
CCOc1ccc(Nc2nc(N)c([N+](=O)[O-])c(N3CCOCC3)n2)cc1	i	-16%
Cc1ccc(CN2CCSc3ccc(C(=O)Nc4cc(C)cc(C)c4)cc32)cc1	-8%	-11%
COc1ccc(C(=O)OCC(=O)Nc2c(C)cccc2C)cc1	-11%	3%
O=C(OC1CCc2ccccc2C1=O)c1ccccc1O (stereo not drawn)	-19%	-7%
COc1coc(C(O)C[N+](=O)[O-])cc1=O (stereo not drawn)	-17%	2%
COc1ccc(NC(=O)C2CCN(S(=O)(=O)c3cccnc3)CC2)cc1Cl	-7%	-7%
O=C(c1ccc2c(c1)CCN2S(=O)(=O)c1ccccc1)N1CCN(c2ccccc2F)CC1	-13%	0%[7.34 µM]
COCCCN1C(=O)C(=O)/C(=C(/O)c2ccc(S(=O)(=O)N3CCOCC3)cc2)C1c1ccc(C(C)C)cc1 (stereo not drawn)	i	-3%
CCOc1ccccc1OCC(=O)Nc1ccccc1C(=O)NC1CC1	-11%	-10%
COC(=O)c1ccc(CN(Cc2ccc(C(=O)OC)o2)C(C)(C)C)o1	-12%	-10%
CCOc1ccc(CCNC(=O)C2Cc3ccccc3N2C(=O)CC)cc1OCC (stereo not drawn)	-3%	4%
COc1cccc(CNC(=O)CSc2nnc3c(n2)[nH]c2ccc(F)cc23)c1	i	11%
Cn1c(SCC(=O)N/N=C/c2cccnc2)nnc1-c1ccccc1	-9%	-8%
CCOc1nc(NC(=O)NS(=O)(=O)Oc2ccc(Cl)cc2)nc(-c2ccccc2)n1	-10%	-7%
CC(CNC(=O)c1ccc(Cn2c(SCc3ccccc3)nc3cccnc32)cc1)c1ccccc1 (stereo not drawn)	-5%	5%
COc1cc(OC)c2c(-c3ccccc3)cc(=O)oc2c1C(CCN1CCCC1)c1ccc2c(c1)OCO2 (stereo not drawn)	-11%	?
Cc1cc(C)c(S(=O)(=O)NCCc2cc3ccc(C)cc3[nH]c2=O)c(C)c1	-6%	-5%
CCOc1ccc(N2CC(C(=O)NCc3ccco3)CC2=O)cc1 (stereo not drawn)	-11%	1%
CCCNC(=S)NNC(=O)c1cccs1	i	-7%
O=C(CCCCn1c(=O)[nH]c2ccsc2c1=O)N1CCN(c2cccc(Cl)c2)CC1	?	-19%
CCc1cccc(NC(=O)C2CCCN2S(=O)(=O)c2ccccc2C(F)(F)F)c1 (stereo not drawn)	-20%	-9%
COc1ccc(C(=O)CN2C(=O)N(c3cc(C)ccc3C)S(=O)(=O)c3ccccc32)cc1	2%	-4%
CNC(=O)CS(=O)CC(=O)Nc1cc(OCCOC)c(Cl)cc1Cl (stereo not drawn)	-14%	-3%
Cc1cccc(C2Nc3ccccc3C(=O)N2c2ccccc2)n1 (stereo not drawn)	-18%	?
CN(c1ccccc1)S(=O)(=O)c1cccc(C(=O)Nc2ccc(N3CCOCC3)cc2)c1	i	-27%
O=C(c1cccs1)c1no[n+]([O-])c1C(=O)c1cccs1	i	?
CCc1ccccc1N(C)C(=O)c1nn(-c2ccc(OC)cc2)c(=O)c2c1c1ccccc1n2C	-13%	-4%
CCc1ccc(NC(=O)CC2C(=O)N(c3cccc(C)c3)C(=O)N2Cc2ccco2)cc1 (stereo not drawn)	-10%	-6%
CSCCC(C(=O)O)N1C(=O)c2ccc(C(=O)O)cc2C1=O (stereo not drawn)	·	-1%
Cc1cccc(OP(=O)(Nc2ccc(F)cc2)Oc2cccc(C)c2)c1	?	?
O=C(Nc1cccc(NC(=O)C2CC3CCCC(C2)C3=O)n1)C1CC2CCCC(C1)C2=O (stereo not drawn)	·	-25%
COc1cccc(NC(=O)Cc2cccs2)c1	·	-15%
COC(=O)c1ccc(OC)c(NS(=O)(=O)c2ccc(-n3cnnn3)cc2)c1	-8%	-16%
CC(C)CN(C(=O)COC(=O)c1cc2ccccc2cc1O)c1c(N)n(Cc2ccccc2)c(=O)[nH]c1=O	-4%	-23%
COc1cc(NC(=O)C/C(C)=N/NC(=O)Cc2ccccc2)c(OC)cc1Cl	?	?
COc1ccc(CNC(=O)[C@@H](C)NC(=O)[C@@H]2Cc3ccccc3CN2)cc1	-3%	1%
O=C1Nc2ccccc2C1=Nc1ccc(Cl)cc1	-12%	-10%
CCc1ccccc1NC(=O)c1ccc2c(c1)N(Cc1cccc(Cl)c1)C(=O)c1ccccc1S2(=O)=O	-4%	6%
CN(C)C1=NCCN1CC1CCCCC1	i	-1%
CCCCCN1C=CC=C/C1=C\C=C(C#N)C#N	i[7.34 µM]	-2%[7.34 µM]
NCCNC(=O)Cn1c(=O)c2c3c(sc2n(Cc2ccccc2)c1=O)CCCC3	i	-12%

Continued:
SMILES	Vaccinia mCherry	Vaccinia Venus
O=C(CNC(=O)c1ccc(Cl)cc1)NC(CO)c1ccccc1 (stereo not drawn)	-14%	-2%
COC(=O)C1=COC(C)C2CN3CCc4c([nH]c5ccccc45)C3CC12 (stereo not drawn)	-3%	18%
Cc1ccc(S(=O)(=O)N2CCOCC2)cc1NC(=O)COC(=O)CNC(=O)c1ccc(Oc2ccccc2)cc1	-10%	-12%
O=S(=O)(Nc1ccc(C(F)(F)F)cn1)c1ccccc1	i	-6%
c1ccc(CSCc2cn3ccccc3n2)cc1	-7%	-5%
CCOc1ccc(N(CC(=O)NCc2ccc3c(c2)OCO3)C(=O)c2csnn2)cc1	i	-1%
CCCN(CC1CC1)c1nc(N)c(C#N)c(CC#N)c1C#N	·	-25%
C(=N\n1cnnc1)/c1cccs1	-15%	-6%
S=C(NCCN1CCOCC1)Nc1ccccc1Cl	-9%	-13%
COc1ccc(OC)c(C(C(=O)NCc2ccco2)N(C(=O)Cn2nnc3ccccc32)C(C)C)c1 (stereo not drawn)	·	1%
COc1ccc(-c2ccnc3c2c(=O)n(C)c(=O)n3C)cc1OC	-7%	-1%
COc1ccc2cc(CN(C(=O)c3cc(C)nn3C)C3CC3)c(-c3ccc(Cl)cc3)nc2c1	i	-15%
CNC(=O)c1cccc(NC(=O)c2ccccc2OCc2ccccc2)c1	20%	-6%
CC(C)CNC(=O)CCCc1ccccc1	·	3%
Cc1cccc(C)c1NC(=O)CN(C)C(=O)c1cc([N+](=O)[O-])ccc1N1CCOCC1	-9%	-2%
Cn1cccc1CC(=O)N/N=C/C=C/c1ccccc1	-14%	-15%
O=C(COC(=O)CCS(=O)(=O)c1ccccc1)NNC(=O)c1ccc([N+](=O)[O-])cc1	-6%	-9%
COC(=O)c1ccc(C2C(C(=O)c3cc4ccccc4o3)=C(O)C(=O)N2c2cc(C)on2)cc1 (stereo not drawn)	i	1%
O=C1CC(C(=O)N2CCc3ccccc32)CN1c1ccc(F)cc1 (stereo not drawn)	i	-17%
O=C(O)CSc1nc2ccccc2nc1Cc1ccccc1F	-12%	12%
CC(C)(C)C(=O)Nc1cccc(C(=O)OCc2cc(=O)n3nc(C4CCCCC4)sc3n2)c1	-15%	-7%
COc1ccc2[nH]c(=O)c(CNc3cccc(C)c3)cc2c1	-1%	-16%
COc1ccc(S(=O)(=O)N2CCN(C(=O)CN3C(=O)NC(C)(c4ccc5ccccc5c4)C3=O)CC2)cc1 (stereo not drawn)	?	?
Cc1ccc(CNC(=O)c2ccc(CSCc3ccc(C)cc3)o2)cc1	-10%	-11%
Clc1ccccc1-c1nc2nc3ccccc3nc2n1-c1ccc2c(c1)OCO2	-22%	-17%
Cc1cc(C)cc(Nc2cc(C)nc3ncnn23)c1	-3%	-11%
COC(=O)c1ccccc1NC(=O)c1ccc(COc2ccccc2)o1	-12%	-9%
CC(C)C(C)(C#N)NC(=O)CSc1nnc(-c2ccccc2)o1 (stereo not drawn)	-13%	-4%
Cc1cccc(NC(=O)CSc2nc(C)nc3c2c(=O)n(C)c(=O)n3C)c1	11%	-18%
Cc1cc(/C=C2/C(=O)NC(=O)N(C)C2=O)c(C)n1-c1ccccc1	i	-14%
CC(C)(C)NC(=O)CCN(/N=C/c1ccc([N+](=O)[O-])o1)C1=NS(=O)(=O)c2ccccc21	?	10µM*
COc1ccc(-c2cc(C(F)(F)F)nc(N3CCN(c4ccc(F)cc4)CC3)n2)cc1OC	-11%	-5%
OC(CN1C2=NCCN2c2ccccc21)c1ccc(Br)cc1 (stereo not drawn)	-7%	-4%
Cc1c(N=C2SCC(=O)N2/N=C/c2ccccc2)c(=O)n(-c2ccccc2)n1C	-17%	-11%
C=CC[C@@H](CC(=O)NCCO)C(=O)NC[C@H](OC(=O)[C@@H](CC=C)Cc1ccc(F)cc1)c1ccccc1	i	-21%
CCc1ccccc1NC(=O)CN1C(=O)CCn2nc(-c3cccn3C)cc21	-14%	-7%
O=C(C[C@H]1C(=O)N(Cc2ccccc2)C[C@@H]1Cc1ccccc1)Nc1ccc(Br)cc1	?	?
CCn1cc(S(=O)(=O)CC(=O)Nc2ccc(OC)cc2)c2ccccc21	i	-27%
COc1ccc(S(=O)(=O)N(C)C[C@@H]2OCc3cn(nn3)CCCC(=O)N([C@H](C)CO)C[C@H]2C)cc1	49%[activator]	3%
CCOC(=O)C1CCN(C(=O)c2ccc(NS(=O)(=O)c3ccc(F)cc3C)cc2)CC1	-5%	1%

Some of the entries so far, with values under each structure.
Results follow in this order: Vaccinia mCherry, Vaccinia Venus
> O=C(Nc1cccc(NC(=O)C2CC3CCCC(C2)C3=O)n1)C1CC2CCCC(C1)C2=O (stereo not drawn)
→ ·, -25%
> COc1cccc(NC(=O)Cc2cccs2)c1
→ ·, -15%
> COC(=O)c1ccc(OC)c(NS(=O)(=O)c2ccc(-n3cnnn3)cc2)c1
→ -8%, -16%
> CC(C)CN(C(=O)COC(=O)c1cc2ccccc2cc1O)c1c(N)n(Cc2ccccc2)c(=O)[nH]c1=O
→ -4%, -23%
> COc1cc(NC(=O)C/C(C)=N/NC(=O)Cc2ccccc2)c(OC)cc1Cl
→ ?, ?
> COc1ccc(CNC(=O)[C@@H](C)NC(=O)[C@@H]2Cc3ccccc3CN2)cc1
→ -3%, 1%
> O=C1Nc2ccccc2C1=Nc1ccc(Cl)cc1
→ -12%, -10%

Next structures follow.
SMILES	Vaccinia mCherry	Vaccinia Venus
CC1(C(=O)NS(=O)(=O)c2ccc(C#N)cc2)CCN1C(=O)Cc1ccccc1Cl (stereo not drawn)	-14%	13%
CS(=O)(=O)N1CCCC(C(=O)NCc2ccccc2Cl)C1 (stereo not drawn)	-8%	6%
COc1cccc(/C=N/NC(=S)NC2CC3CC2C2C=CCC32)c1O (stereo not drawn)	?	-18%
CCOC(=O)c1nnsc1NC(=O)Nc1ccc(OC)cc1	-15%	-1%
O=C(c1nnsc1S(=O)c1ccc(Cl)cc1)N1CCOCC1 (stereo not drawn)	?	?
Cc1cc(Oc2ccc(=O)n(C)n2)nc(Oc2ccc(=O)n(C)n2)n1	·	-14%
CSc1nc(-c2ccccc2)nc(C(C)C)n1	-14%	-5%
Cc1cc(C)nc(SCC(=O)NN=Cc2ccc(C)o2)n1	-6%	11%
COC(=O)c1c(-c2cccs2)csc1NC(=O)c1ccc(C)cc1	-9%[7.34 µM]	-9%[7.34 µM]
Cc1ccc(N2CCN(C(=O)c3cnc(N4CCCCC4)c4ccccc34)CC2)c(C)c1	-18%	-23%
Cc1nn2c(-c3ccc(Cl)cc3Cl)nnc2s1	·	-24%
COc1cccc(CC2(CO)CCN(Cc3ccc(NC(C)=O)cc3)CC2)c1	-7%	-2%
O=C(CCNC(=O)c1ccc([N+](=O)[O-])cc1)NCCc1ccc(Cl)cc1	?	-7%
CC(Cc1ccccc1)C(=O)N(C)Cc1cccnc1 (stereo not drawn)	i	-9%
O=c1[nH]c2cc3c(cc2cc1CN(CCO)S(=O)(=O)c1ccccc1)OCCO3	-6%	11%
c1cncc(-c2nc(N3CCOCC3)c3ccccc3n2)c1	-28%	-23%
COc1ccc(N2CC(NC(=O)C(c3ccccc3)c3ccccc3)CC2=O)cc1OC (stereo not drawn)	-6%	1%
CN(C)c1nn(C(=O)Nc2ccc(Cl)cc2Cl)cc1-c1ccccc1	-10%	-3%
CCc1ccc2c(c1)NC(c1ccc(OC)cc1)=NC(c1ccncc1)=N2	i	-6%

A section from the list above:
SMILES	Vaccinia mCherry	Vaccinia Venus
Cc1nn2c(-c3ccc(Cl)cc3Cl)nnc2s1	·	-24%
COc1cccc(CC2(CO)CCN(Cc3ccc(NC(C)=O)cc3)CC2)c1	-7%	-2%
